Rango dissoc inh: inhibition of RanGTP-driven Rango-importin beta dissociation; Potency, µM (titrated, usually from 46.1 µM), without a hit: top-dose activity change, negative = inhibition; 0.071% of 340,000 active; Biochemical FRET Rango-importin beta, RanGTP-induced dissociation; O95149+P62826; active means falling FRET ratio curve, often poorly fitted, with flat reads before Ran was added; inconclusive means other falling curves, or compound fluorescence or quenching; inactive means flat or rising ratio curve;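 also: potency is read from the fitted curve at half-maximal effect; % of control where 0% means no effect; nearly all actives have a fitted effect of over 45% in size; -100% = wells without RanGTP and RCC1; the record marks most hits as doubtful in a second field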
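Rango (0.1 uM)–importin beta (0.25 uM) complex; RanGTP-RCC1 trigger; 45 min RT; CFP/YFP FRET read.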
miR-21 reporter: raises the signal of a miR-21 reporter | HeLa miR-21 FLuc reporter, luciferase, 48 h | AID 2288 | Potency, µM (series often up to 38.3 µM), inactives show top-dose reporter change, positive = more light | 340,000 tested, under 10 active; active = well fitted rising curve with a large enough effect; inconclusive = small, poorly fitted or top-dose-only effect; inactive = no such curve, though single readings can be large or run the other way;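 also: % of control where 0% means no effect; miR-21 action dims this reporter so a rising signal means less miR-21 action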
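HeLa cells stably expressing CMV-driven firefly luciferase with a downstream miR-21 binding sequence, endogenously expressing miR-21, were treated with titrations (up to about 40uM final) for 48 hours at 37 degree Celsius. Luciferase luminescence was read after lysis.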
Rango complex inh: prevents formation of the Rango-importin beta complex; Q14974; Rango CFP/YFP FRET sensor + importin beta, 45 min; Potency, µM (doses to about 92.2 µM), for inactives: at the top dose inhibition of complex formation; 0.031% of 340,000 active; AID 540263; active = rising FRET ratio curve, often small or poorly fitted; inconclusive = mostly compound fluorescence or quenching in the first reads; inactive = flat curves in all reads;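 also: potency is read from the fitted curve at half-maximal effect; 0% = DMSO wells and 100% = buffer wells lacking importin beta; nearly all actives have a fitted effect of over 15% in size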
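FRET biosensor Rango (snurportin 1 IBB between N-terminal EYFP and C-terminal Cerulean), 50 nM in PBS/1 mM DTT/0.02% Tween-20/0.1% BSA, preincubated 5 min RT with compound; 0.125 microM importin beta added, 45 min RT, CFP/YFP FRET ratio read.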
GLA inh pH 4.5: blocks human alpha-galactosidase A at pH 4.5. activity change, negative = inhibition, % at 105 µM. purified enzyme, 4-MU-alpha-Gal fluorescence, pH 4.5. P06280. 230,000 tested, under 10 active. AID 1467; inconclusive = small, poorly fitted or top-dose-only inhibition, or a rising curve; inactive = flat fitted curve, though single readings scatter; no compound was filed as active;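 also: 0% = full activity with enzyme and -100% = basal without enzyme; dose as in the result columns while the protocol names 77 µM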
Target sequence (P06280 whole entry, looked up): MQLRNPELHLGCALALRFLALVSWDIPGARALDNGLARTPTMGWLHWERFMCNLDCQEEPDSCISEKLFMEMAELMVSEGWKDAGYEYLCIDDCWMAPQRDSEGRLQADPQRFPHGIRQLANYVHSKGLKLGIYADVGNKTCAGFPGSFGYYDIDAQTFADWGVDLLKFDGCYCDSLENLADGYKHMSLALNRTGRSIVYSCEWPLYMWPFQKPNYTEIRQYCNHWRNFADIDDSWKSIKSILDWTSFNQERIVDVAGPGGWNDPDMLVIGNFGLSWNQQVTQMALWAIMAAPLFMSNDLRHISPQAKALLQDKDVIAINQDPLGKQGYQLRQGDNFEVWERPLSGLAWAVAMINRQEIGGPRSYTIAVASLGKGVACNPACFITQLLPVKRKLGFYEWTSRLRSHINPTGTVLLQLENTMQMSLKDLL
* marks the source's active call; other numbers are inactive results; ? = inconclusive; . = no result given.

The first 5 entries (preview)
| Molecule | Rango dissoc inh | miR-21 reporter | Rango complex inh | GLA inh pH 4.5 |
| --- | --- | --- | --- | --- |
| CC1=C(C(=O)OCc2ccccc2)N2C(=O)[C@@H](NC(=O)COc3ccccc3)[C@H]2SC1 | -6% | 0% | ? | . |
| COc1cccc2cc(C(=O)NCc3ccc(F)cc3)c(=N)oc12 | -1% | -1% | -2.4% | . |
| O=C(COC(=O)CC1CC2CCC1C2)NCc1ccc(F)cc1 (stereo not given) | -1% | . | 0.2% | . |
| COc1ccc(-c2csc(NC(=O)COC(=O)Cc3ccc(Cl)cc3Cl)n2)cc1 | . | -48% | . | -2 |
| CCOC(=O)N1CCC(N2CCN(Cc3ccc(C)o3)C(CCO)C2)CC1 (stereo not given) | -2% | 0% | 4.3% | -7 |

The whole of this part, from the start:
| Molecule | Rango dissoc inh | miR-21 reporter | Rango complex inh | GLA inh pH 4.5 |
| --- | --- | --- | --- | --- |
| CC1=C(C(=O)OCc2ccccc2)N2C(=O)[C@@H](NC(=O)COc3ccccc3)[C@H]2SC1 | -6% | 0% | ? | . |
| COc1cccc2cc(C(=O)NCc3ccc(F)cc3)c(=N)oc12 | -1% | -1% | -2.4% | . |
| O=C(COC(=O)CC1CC2CCC1C2)NCc1ccc(F)cc1 (stereo not given) | -1% | . | 0.2% | . |
| COc1ccc(-c2csc(NC(=O)COC(=O)Cc3ccc(Cl)cc3Cl)n2)cc1 | . | -48% | . | -2 |
| CCOC(=O)N1CCC(N2CCN(Cc3ccc(C)o3)C(CCO)C2)CC1 (stereo not given) | -2% | 0% | 4.3% | -7 |
| Cc1ccnc(NC(=O)CCCOc2ccccc2)c1 | -23% | -2% | -1.6% | -17 |
| COc1cc(C[C@H](C)[C@H](C)Cc2ccc3c(c2)OCO3)ccc1O | 6% | 7% | -1.7% | -10 |
| CCOc1ccc(NC(=O)CSc2nc3cccnc3n2CCOC)cc1 | -11% | -1% | -0.3% | 2 |
| O=C(COC(=O)COc1cccc(F)c1)NCC1CCCCC1 | 21% | . | 3.3% | . |
| CCOC(=O)Cc1csc(NC(=O)NC2(C(F)(F)F)Oc3ccccc3O2)n1 | 17% | 0% | -2.3% | -4 |
| CN1CC(=O)NC1=NC(=O)C12CC3CC(CC(C3)C1)C2 | 23% | -9% | 7.4% | 4 |
| CC1(C)N([O-])C2=C(c3ccccc3C2=O)[N+](=O)C1(C)C | -5% | 0% | ? | -9 |
| Cc1ccc(C(=O)OCCc2sc[n+](Cc3ccccc3)c2C)cc1 | 0% | 11% | 0.6% | -3 |
| CN(Cc1cnccn1)C(=O)CC1C(=O)NCCN1CC(c1ccccc1)c1ccccc1 (stereo not given) | -18% | 1% | -3.6% | 6 |
| Cc1ccc(NC(=O)C/C(N)=N/OC(=O)Nc2cccc(Cl)c2)cc1 | 14% | . | -3.8% | . |
| C#CCNC(=O)C1=C[C@H](C2CCCCC2)C[C@H](OCCCCO)O1 | 1% | -2% | -0.3% | 4 |
| Cc1onc(-c2ccccc2Cl)c1C(=O)OCC(=O)c1ccccc1 | -4% | -8% | -3.3% | -1 |
| O=C(NC1(C(F)(F)F)N=C2SCCN2C1=O)c1cccnc1 (stereo not given) | 3% | -4% | 4.8% | -3 |
| COC(=O)c1ccc(Cl)c(NC(=O)CN2CCOCC2)c1 | 3% | -16% | 2.2% | 6 |
| O=C(CSc1nnc(CNC(=O)c2cccs2)o1)c1ccc(Cl)cc1 | 10% | 14% | ? | -11 |
| O=C(O)C1CC(c2ccccc2F)=NO1 (stereo not given) | -12% | -3% | 0.6% | 5 |
| COc1ccccc1-c1nnc2n1N=C(C(C)(C)C)CS2 | 17% | -10% | -3.3% | 9 |
| c1ccc2c(c1)CC(CN1CCNCC1)O2 (stereo not given) | 1% | -8% | 1.7% | . |
| COc1ccc(S(=O)(=O)N(C)c2nc3ccccc3n3c(CC(C)C)nnc23)cc1 | 24% | -5% | -2.1% | . |
| COc1ccc(CNC(=O)C2(c3ccc(Cl)cc3)CC2)cc1 | -1% | -7% | 1.5% | -6 |
| Cc1ccc(NC(=O)CSc2nnc(/N=C/N(C)C)s2)cc1 | -8% | -3% | -4.1% | 0 |
| COc1cc(OC)c2c(-c3cccc(-c4cccc(C)c4)c3)cc(=O)oc2c1 | 9% | . | -0.4% | -3 |
| O=C(Nc1ccc2c(c1)CCC2)c1ccc(Br)o1 | 17% | -41% | 9.4% | -1 |
| COc1ccccc1N1CCN(C(=O)c2nn(-c3ccccc3OC)c(=O)c3ccccc23)CC1 | -2% | 0% | 5.8% | -7 |
| COc1cc2cc(C(=O)N3CCN(Cc4ccc5c(c4)OCO5)CC3)[nH]c2cc1OC | -15% | 2% | 4.6% | . |
| CCn1c(SCc2nc3ccccc3s2)nnc1-c1cccs1 | 4% | -58% | 0.2% | -5 |
| COc1ccc(CCN(C)C(=O)c2ccc(OCC(=O)N3CCOCC3)c(OC)c2)cc1OC | 4% | -6% | -3.5% | . |
| CN1C(=O)CC(N2CCC(c3nc4ccccc4s3)CC2)C1=O (stereo not given) | 1% | -12% | 4.1% | 0 |
| Cc1c(N=C2NN=C(c3c[nH]c4ccccc34)CS2)c(=O)n(-c2ccccc2)n1C | 0% | -4% | ? | -1 |
| Cn1c(=O)oc2cc(S(=O)(=O)N3CCOCC3)ccc21 | -1% | -3% | -1.0% | 12 |
| C=CCn1c(Sc2nnc(C)s2)nc2c1c(=O)[nH]c(=O)n2C | 3% | -25% | 5.9% | 3 |
| COC(=O)[C@H](CCSC)NC(=O)Nc1ccc(C(C)C)cc1 | -11% | -38% | 0.3% | 6 |
| O=C(Nc1ccc(Cl)c(Cl)c1)c1ccc(Cn2c(=O)[nH]c3ccsc3c2=O)cc1 | 11% | -6% | 1.2% | 2 |
| Nc1ccccc1SC1CC(=O)N(c2ccccc2Cl)C1=O (stereo not given) | 38% | -10% | 1.3% | -1 |
| CC(=O)Nc1ccc(NC(=O)CSc2nnc(NC(=O)C3CC3)s2)cc1 | -10% | 9% | 4.3% | . |

An excerpt of these results, with the structure last.
Rango dissoc inh | miR-21 reporter | Rango complex inh | GLA inh pH 4.5 | compound
24% | -5% | -2.1% | . | COc1ccc(S(=O)(=O)N(C)c2nc3ccccc3n3c(CC(C)C)nnc23)cc1
-1% | -7% | 1.5% | -6 | COc1ccc(CNC(=O)C2(c3ccc(Cl)cc3)CC2)cc1
-8% | -3% | -4.1% | 0 | Cc1ccc(NC(=O)CSc2nnc(/N=C/N(C)C)s2)cc1
9% | . | -0.4% | -3 | COc1cc(OC)c2c(-c3cccc(-c4cccc(C)c4)c3)cc(=O)oc2c1

The listing continues.
| Molecule | Rango dissoc inh | miR-21 reporter | Rango complex inh | GLA inh pH 4.5 |
| --- | --- | --- | --- | --- |
| CNC(=O)c1cc(S(=O)(=O)NCc2ccncc2)ccc1OC | -9% | 0% | -5.4% | . |
| CC(C)CCNC(=O)c1nnc(Cc2ccc(Cl)cc2)o1 | 1% | 0% | -1.4% | -10 |
| COc1ccc2c(=O)c3c(=O)n(CCc4ccccc4)c(C)nc3oc2c1 | -7% | . | 0.2% | . |
| Cc1ccc(N(C)/N=C/c2ccc(Cl)cc2Cl)nn1 | -3% | -5% | 1.7% | . |
| CCCOc1nc2ccccc2cc1/C=C/C(=O)O | -18% | 0% | ? | -14 |
| Cc1cc(OCC(=O)Nc2ccccc2F)nc(C(C)C)n1 | -2% | -5% | -3.9% | -5 |
| CC(=Nc1ccc(O)cc1)c1sc2ccccc2c1O | ? | -37% | ? | 0 |
| CCN(CC)S(=O)(=O)c1ccc(C(=O)NCC(=O)N/N=C/c2ccccc2OC)cc1 | -17% | 1% | 6.4% | . |
| c1ccc2c(c1)OCC(CNc1ncnc3nc[nH]c13)O2 (stereo not given) | 0% | -6% | 0.2% | 6 |
| CCOC(=O)C(=NCCOC)NNc1cc(Cl)ccc1Cl | 2% | -4% | 0.0% | 2 |
| O=C(CN1C(=O)c2ccc([N+](=O)[O-])cc2C1=O)Nc1nnc(C2CC2)s1 | 12% | . | 1.9% | . |
| CC(=O)c1c(C)[nH]c(C(=O)OCC(=O)Nc2cc(S(=O)(=O)N3CCCC3)ccc2Cl)c1C | -10% | 14% | 1.0% | 5 |
| CN(C)C(=S)SCC(=O)Nc1ccc(Cl)cc1Cl | 0% | -41% | -0.2% | 3 |
| CC1CCN(C(=O)Cn2c(=O)n(CCCC(=O)NCc3ccco3)c(=O)c3sccc32)CC1 | -13% | -2% | 0.0% | . |
| Cc1ccccc1CNC(=O)C(=O)NCCC1CCCCN1S(=O)(=O)c1ccccc1 (stereo not given) | -5% | . | 1.2% | . |
| Cc1ccc(-n2nnnc2SCC(=O)N2CC(=O)Nc3ccccc32)cc1 | -3% | -9% | -3.5% | -3 |
| O=C(c1ccccc1)C1N=NCC1c1ccc(Cl)cc1 (stereo not given) | -11% | . | ? | . |
| Cc1cc(C)nc(N/N=C/c2ccccc2OCc2cccc(Br)c2)n1 | -7% | 4% | 0.7% | -6 |
| O=C(CC(C(=O)O)c1c[nH]c2ccccc12)c1ccccc1 (stereo not given) | -24% | -43% | ? | . |
| CC1(NC(=O)c2ccccc2)CCN(CCc2cccs2)C1=O (stereo not given) | -15% | . | 2.2% | . |

More records:
Every second line gives: Rango dissoc inh	miR-21 reporter	Rango complex inh	GLA inh pH 4.5
O=C(Nc1nc(-c2ccc([N+](=O)[O-])cc2)cs1)c1c(F)cccc1F
    -1%	-17%	-1.1%	2
CN(CC(=O)Nc1ccc(F)cc1)C(=O)c1cccc(S(=O)(=O)N2CCN(c3ccccc3)CC2)c1
    -5%	14%	0.1%	.
Cn1c(COc2ccc(Cl)cc2)nnc1SCc1ncc(-c2ccccc2)o1
    0%	15%	3.9%	-27
CC(=O)Nc1ccc(SCC(=O)c2ccc(Br)s2)cc1
    -3%	-35%	-3.6%	.
CCOc1ccc(/C=N/OCC(=O)NC(c2ccccc2)c2ccccc2)cc1
    ?	6%	0.1%	-10
Cc1ccc(CNC(=O)CN2CCN(c3ccc(F)cc3)CC2)cc1
    -20%	1%	-0.6%	.
O=C(NC(=S)Nc1cccnc1Cl)c1ccc(Cl)cc1
    0%	-39%	-0.2%	.
Cc1ccc(C(=O)O/N=C(\N)c2ccccn2)c(Cl)c1
    3%	?	0.3%	.
CCCCOc1ccc(C(C)(O)CCN2CCOCC2)cc1 (stereo not given)
    -5%	-20%	-1.7%	3
Cc1cc(-c2ccccc2)nc(N/N=C/c2ccc(N(C)C)cc2)n1
    -14%	.	0.0%	.
CCC(C)[C@H]1CN=C(N)N1CCc1cc(C(F)(F)F)cc(C(F)(F)F)c1 (stereo not given in full)
    1%	19%	0.7%	-1
Cc1ccc(NC(=S)NCCSc2ccc(Cl)cc2)c(C)c1
    12%	4%	-0.8%	-3
CS(=O)(=O)c1ccc(C(=O)OCC(=O)NC(=O)C2COc3ccccc3O2)cc1[N+](=O)[O-] (stereo not given)
    24%	.	-5.4%	.
N#CC1=C(N)OC2=C(CN(Cc3ccccc3)C/C2=C\c2cccnc2)C1c1cccnc1 (stereo not given)
    -20%	-9%	?	-10
CCOC(=O)c1cnc2ccc(Cl)cc2c1N1CCN(C)CC1
    -1%	-12%	4.4%	-4
CCC1(CC)NC(=O)N(CC(=O)OCC(=O)c2cc(C)c(C)cc2C)C1=O
    7%	.	-0.8%	.
CCCCn1c(N)c(N(CCOC)C(=O)CSc2nnc(-c3ccco3)n2CC)c(=O)[nH]c1=O
    37%	.	-0.4%	.
COc1ccc(C2(C)NC(=O)N(CC(=O)N3CCc4ccccc43)C2=O)cc1OC (stereo not given)
    0%	.	1.2%	.
COc1cc2[nH]c(=S)nc(NCCc3ccc(C)cc3)c2cc1OC
    23%	-1%	0.7%	-28
CCOc1ccc(NC(=O)CSc2nc(C3CC3)nc3ccccc23)cc1
    -20%	1%	0.6%	9
CN(C)S(=O)(=O)Nc1ccc2c(c1)OCO2
    -7%	-4%	0.1%	-2
CCCCCN(C(=O)CCC(=O)OC(C)C(=O)c1ccc(Cl)cc1)c1c(N)n(CCCC)c(=O)[nH]c1=O (stereo not given)
    -3%	.	0.9%	.

Compound activity from PubChem BioAssay.

Only part of the results is shown (hit frequency here may not be typical).
